UCH37 DUB inh = inhibitors of human deubiquitinating enzyme UCH37; inhibition, % (no concentration beside the values); Q9Y5K5; actives 0.33% (n = 330,000); purified proteasome/UCH37, Ub-AMC cleavage fluorescence; AID 588478;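 active = mean of two replicates above 20%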;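 also: 0% = compound-free wells with enzyme and 100% = wells lacking proteasome; stock transfer was 100 nL into about 20 µL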
Target sequence (Q9Y5K5 whole entry, looked up): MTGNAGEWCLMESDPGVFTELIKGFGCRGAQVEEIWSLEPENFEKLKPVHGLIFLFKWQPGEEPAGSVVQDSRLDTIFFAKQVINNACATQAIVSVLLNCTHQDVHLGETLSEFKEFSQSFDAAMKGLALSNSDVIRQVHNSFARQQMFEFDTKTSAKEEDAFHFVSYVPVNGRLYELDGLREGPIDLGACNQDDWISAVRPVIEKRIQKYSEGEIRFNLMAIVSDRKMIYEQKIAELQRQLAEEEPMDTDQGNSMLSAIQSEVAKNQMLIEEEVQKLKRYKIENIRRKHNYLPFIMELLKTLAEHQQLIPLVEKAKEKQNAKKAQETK
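System: Proteasome-associated human UCH37 deubiquitinase; Input: 0.15 nM proteasome in added enzyme buffer; Also added: Ub-AMC substrate from 1 µM stock; Incubation: 30 min compound-proteasome preincubation then 25 min substrate reaction, room temperature; Detection: fluorescence, ex 355 nm, em 460 nm; Read-out: % inhibition of Ub-AMC cleavage fluorescence; Benchmarks: no-proteasome and no-compound wells.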
FGF22 binding = FGF22 (human) thermal shift binding | Q9HCT0 | recombinant FGF22 thermal shift, SYPRO orange fluorescence; percent of sucrose octasulfate shift, DMSO zero | calls only at 9.99 µM | actives 1.5% (n = 340,000) | AID 651658;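 active = melting point raised past a set limit in the mean and every replicate; three in four hits are not shown here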
Target sequence (Q9HCT0 whole entry, looked up): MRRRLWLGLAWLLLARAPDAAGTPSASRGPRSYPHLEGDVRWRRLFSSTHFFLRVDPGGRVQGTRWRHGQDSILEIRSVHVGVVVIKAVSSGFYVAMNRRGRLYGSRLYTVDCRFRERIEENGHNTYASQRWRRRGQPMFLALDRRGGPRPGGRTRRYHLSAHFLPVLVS
rRNA inh HTS = inhibitors of bacterial rRNA selective over humanized ribosomes; E. coli WT GFP vs humanized-ribosome RFP mutants, fluorescence, 24 h; stronger effect = lower value; DMSO median 0, no signal -100; GFP signal change (wild-type ribosome), % (test concentration not listed); actives 1.6% (n = 350,000); AID 720706;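 active = significant combined selectivity score with lowered wild-type GFP, culture density cut under 30%, mutant RFP and density less affected; inactive = any of these conditions unmet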; also: one replicate is shown; some compounds called inactive have numbers as strong as hits
ALR inh = inhibitors of human sulfhydryl oxidase ALR | P55789 | purified ALR, DTT oxidation, H2O2 HRP-luminol luminescence | inhibition, % (no concentration beside the values) | actives 3.8% (n = 290,000);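 active = mean and each replicate at 75% or more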;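 also: stock transfer was 7.5 nL into about 7.5 µL; 0% = neutral wells and 100% = wells with inactivated enzyme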
E coli growth = blocks Escherichia coli growth | OD600 absorbance (test concentration not listed) | AID 1053175 | actives 0.21% (n = 330,000) | OD600, 23 h; stronger effect = lower value;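 active = OD600 absorbance below the run mean of sample wells minus 3.6 SD, in any replicate, cut at about 0.56 in these data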;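 also: stock transfer was 300 nL into about 60 µL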
HNF4A DNA FP = change in binding of human HNF4 alpha to DNA; activity change, % at 10 µM; HNF4a-FITC DNA binding, fluorescence polarization, 1 h; actives 0.3% (n = 360,000); P41235; AID 1224865; in the data active = activity change above about 30%, passing the limit was not always enough;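 also: controls were the assay level and a saturating level of protein; the project sought stronger binding though the title names inhibitors; some compounds called inactive have numbers as strong as hits; positive values seem to mean higher polarization but the record does not say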
Beta2AR agonist = agonists of human beta-2 adrenergic receptor inducing internalization. P07550. response, % (no concentration beside the values). Am2.2-beta2AR cells, FAP receptor internalization, flow cytometry; reference of the scale not given here. actives 0.43% (n = 340,000). AID 504454;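 active = response above a set limit, near 3 SD of response in nonfluorescent compounds, cut at about 42% in these data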;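 also: stock transfer was 100 nL into about 11 µL; a reference agonist was the positive control; negative values mostly stem from fluorescent compounds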
Target sequence (P07550 whole entry, looked up): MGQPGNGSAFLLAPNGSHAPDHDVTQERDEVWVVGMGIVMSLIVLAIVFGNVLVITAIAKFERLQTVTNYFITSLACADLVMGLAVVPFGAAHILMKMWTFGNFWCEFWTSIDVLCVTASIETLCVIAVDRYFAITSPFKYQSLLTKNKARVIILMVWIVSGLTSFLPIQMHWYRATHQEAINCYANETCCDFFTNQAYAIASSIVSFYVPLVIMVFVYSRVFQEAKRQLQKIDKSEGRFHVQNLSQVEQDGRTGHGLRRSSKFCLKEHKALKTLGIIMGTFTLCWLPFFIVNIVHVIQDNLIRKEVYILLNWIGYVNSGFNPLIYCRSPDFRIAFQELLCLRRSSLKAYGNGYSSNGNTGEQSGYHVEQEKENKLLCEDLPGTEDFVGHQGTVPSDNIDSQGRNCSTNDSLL
rRNA inh HTS OD600 = also measured in rRNA inh HTS; calls as there; OD600 change, %; measured here: OD600 growth;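 optical density of the mix in the first replicate; 0 = DMSO median and -100 = no signal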
rRNA inh HTS RFP = also measured in rRNA inh HTS; calls as there; RFP signal change, %; measured here: RFP humanized mutant strains;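 first replicate; 0 = DMSO median and -100 = no signal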
An asterisk follows results filed as active; i = inactive; · = no result given. A portion of the library. The share of hits here may be higher or lower than overall.

UCH37 DUB inh,FGF22 binding,rRNA inh HTS,rRNA inh HTS OD600,rRNA inh HTS RFP,ALR inh,E coli growth,HNF4A DNA FP,Beta2AR agonist,canonical_smiles
-190,i,11,8,-1.6,-3,0.68,3.0,0,CCN1CCCC1Cn1cnc2c([nH]c3ccc(OC)cc32)c1=O (stereo unspecified)
7.2,i,-16,-17,4.1,·,0.68,-3.4,9,Cc1ccc(S(=O)(=O)N2[C@@H](c3ccc(Cl)c(Cl)c3)C(C(=O)O)=C[C@H]2CC2CCCC2)cc1
8.9,·,·,·,·,·,0.68,-1.0,3,CC(C)CC(=O)NC(Nc1ccc([N+](=O)[O-])cc1)C(Cl)(Cl)Cl (stereo unspecified)
3.5,·,·,·,·,-74,0.72,·,·,Cc1cc(C2(c3cc(C)c(NC(=O)CN4CCOCC4)c(C)c3)CCCCC2)cc(C)c1NC(=O)CN1CCOCC1
-13,i,-7,-14,3.8,17,0.67,3.9,-14,Nc1c(C(=O)N2CCCCC2)sc2nc3c(cc12)CCCC3
1.0,·,·,·,·,-15,0.65,0.1,-16,O=C(Nc1ccon1)c1cccc(S(=O)(=O)N2CCCCCC2)c1
1.0,i,8,1,0.2,1,0.68,-1.1,-4,Nc1nc(NS(=O)(=O)c2ccc(Cl)cc2)nn1-c1ccccc1
2.0,·,·,·,·,4,0.72,0.1,-5,O=C1c2ccccc2C(=O)N1CCSc1ncn[nH]1
2.7,i,11,10,1.9,0,0.74,1.6,-5,COc1cc(C(=O)OCC(=O)NCc2ccc(F)cc2)ccc1OCC(C)C
-0.6,i,13,7,-3.2,-3,0.7,-2.9,-10,Cc1cccc(-n2ccnc2CN2CCN(C(C)C)C(CCO)C2)c1 (stereo unspecified)
7.2,i,10,-1,-0.5,-24,0.68,-6.6,-2,COCCNc1ccc(-c2nn(C)c(=O)c3ccccc23)cc1[N+](=O)[O-]
2.3,i,-5,13,-2.8,-3,0.75,-1.0,-3,COc1ccc(C(=O)COC(=O)c2c(-c3ccccc3)noc2C)c(OC)c1
7.7,·,·,·,·,9,0.73,2.8,-1,O=C(C1=C(O)C(=O)N(c2ncccn2)C1c1cccc(Cl)c1)c1ccco1 (stereo unspecified)
0.3,·,·,·,·,-4,0.75,-4.7,1,Cc1cc(-c2ccccc2)cc(-c2ccccc2)[n+]1C
4.9,i,2,10,-1.0,0,0.65,-0.1,-4,COc1ccc(NC(=O)N2CCCC2C(=O)NC2CCCC2)cc1 (stereo unspecified)
2.9,·,·,·,·,56,0.73,-9.2,8,COc1ccc(-c2cc(=O)[nH][nH]2)cc1
i,·,·,·,·,28,0.65,1.1,-3,Cc1cc(=O)[nH]c2cc(O)ccc12
2.2,i,-1,6,1.2,99*,0.81,-2.6,-5,CSc1cccc(NC(=O)c2ccc(NC3=NC4CS(=O)(=O)CC4S3)cc2)c1 (stereo unspecified)
·,i,6,17,2.6,·,·,-1.7,·,Cc1ccc(C)c2c1CCCC2=O
4.2,i,-4,1,-12,-17,·,0.6,3,CCOC(=O)C[C@H]1c2cc(F)ccc2S(=O)(=O)N1C(C)C
-1.4,·,·,·,·,-4,0.66,0.1,-5,CCOC(=O)C1=C(N)OC2=C(C(=O)CCC2)C1c1cccs1 (stereo unspecified)
6.0,i,1,-2,-6.8,96*,0.66,-3.0,36,NC(=O)c1ccc(-n2nnnc2SCC(=O)c2ccc(O)c(O)c2)cc1
-305,i,-3,-3,-3.5,-1,0.78,2.0,-9,COc1ccc(Nc2oc(-c3ccccc3Cl)nc2C#N)cc1
-0.3,·,·,·,·,-4,0.73,·,·,COc1cccc(C(=O)OCCN(C)C(C)(C)C)c1
-9.0,·,·,·,·,-8,0.7,1.1,-7,O=C(NCc1ccccn1)c1coc(=O)c(Br)c1
-1.2,·,·,·,·,6,0.75,2.4,-3,COc1ccc2c(CC(=O)OCC(=O)c3ccc(F)cc3)coc2c1
3.0,i,4,11,-0.5,-9,0.8,2.4,18,CCOC(=O)c1ccc(NC(=O)c2cccc3c2C(=O)N(CC2CCCO2)C3)cc1 (stereo unspecified)
-2.3,·,·,·,·,·,0.71,0.3,2,NS(=O)(=O)c1ccc(CCNC(=S)Nc2ccc(S(N)(=O)=O)cc2)cc1
-2.0,i,-4,-7,-3.2,2,0.69,-1.8,0,Cc1cccc(C)c1OCc1cc(C(=O)NCC2CC2)no1
·,i,-5,1,3.8,-5,·,1.2,-2,COc1cccc(C(=O)NCCS(=O)(=O)N(C)Cc2ccccc2)c1

Complete entries as entered above. Values in the order: UCH37 DUB inh	FGF22 binding	rRNA inh HTS	rRNA inh HTS OD600	rRNA inh HTS RFP	ALR inh	E coli growth	HNF4A DNA FP	Beta2AR agonist
Cc1cccc(-n2ccnc2CN2CCN(C(C)C)C(CCO)C2)c1 (stereo unspecified) is listed with -0.6	i	13	7	-3.2	-3	0.7	-2.9	-10
COc1cc(C(=O)OCC(=O)NCc2ccc(F)cc2)ccc1OCC(C)C is listed with 2.7	i	11	10	1.9	0	0.74	1.6	-5
COc1ccc2c(CC(=O)OCC(=O)c3ccc(F)cc3)coc2c1 is listed with -1.2	·	·	·	·	6	0.75	2.4	-3
CCOC(=O)C1=C(N)OC2=C(C(=O)CCC2)C1c1cccs1 (stereo unspecified) is listed with -1.4	·	·	·	·	-4	0.66	0.1	-5
CCN1CCCC1Cn1cnc2c([nH]c3ccc(OC)cc32)c1=O (stereo unspecified) is listed with -190	i	11	8	-1.6	-3	0.68	3.0	0

Other entries.
UCH37 DUB inh,FGF22 binding,rRNA inh HTS,rRNA inh HTS OD600,rRNA inh HTS RFP,ALR inh,E coli growth,HNF4A DNA FP,Beta2AR agonist,canonical_smiles
1.5,·,·,·,·,-3,0.66,-3.1,-7,Cn1ncc(C#N)c1NC(=O)C1CC(c2ccc(Cl)c(Cl)c2)=NO1 (stereo unspecified)
4.5,i,0,4,-0.9,-2,0.66,1.6,5,N/C(=N\OC(=O)CCCOc1ccccc1)c1ccccn1
0.9,i,-30,-51,-8.0,-11,0.65,-4.0,0,CCCCCCCCc1nnc(N)s1
2.4,i,13,8,-0.5,-4,0.7,-3.6,1,COc1cc(C(=O)NC2CCCCCCC2)cc(OC)c1OC
0.9,i,10,23,-0.7,-9,0.69,-5.7,-5,O=C(COC(=O)COc1ccc(Br)cc1)Nc1cccnc1Cl
-196,i,·,·,·,-37,0.68,4.2,-18,Cc1c(C)c2c(OCC(=O)NCc3ccncc3)cc3c(c2oc1=O)CCC(C)(C)O3
2.2,·,·,·,·,-5,0.73,0.0,-3,Cc1cccc(N2CC(C(=O)Nc3ccc4c(c3)OCO4)CC2=O)c1C (stereo unspecified)
·,i,10,13,0.5,·,·,2.8,-2,CN(C)S(=O)(=O)c1ccc(NC(=O)Cn2nc(-c3ccc4c(c3)OCCO4)ccc2=O)cc1
4.9,i,-18,-16,0.4,-2,0.64,-5.2,3,O=S(=O)(c1ccc(F)cc1)N1CCN(CCc2ccccc2)CC1
1.8,i,9,13,-2.6,·,0.64,0.5,-1,CCOc1ccc(Br)cc1S(=O)(=O)N1CCCN(C)CC1
4.1,i,3,4,0.7,0,0.69,0.3,-4,CC(C)n1cc(C(N)=S)c(=O)n(Cc2ccccc2)c1=O
·,i,-36,-55,-0.2,-31,·,-0.8,8,O=C(CNc1ccc(F)cc1)N/N=C/c1c(O)ccc2ccccc12
·,i,11,24,-1.3,·,·,2.5,-11,O=C(NC1CCCCC1)c1csnn1
-4.7,·,·,·,·,-22,·,0.4,-8,CCCCc1ccc(NC(=O)OC)cc1
1.5,i,-8,-14,-0.9,-3,0.65,-0.9,4,CCc1nnc(N2C(=O)c3ccccc3C2(O)c2ccccc2)s1 (stereo unspecified)
-34,i,·,·,·,-1,0.75,5.0,45*,Cc1ccc(-c2nc3ncccc3o2)cc1NC(=O)c1sc2ccccc2c1Cl
-481,i,·,·,·,·,0.72,2.3,-8,Cc1cc(=O)oc2c3c(cc(OCC(=O)NCc4ccncc4)c12)OC(C)(C)CC3
7.5,·,·,·,·,-11,0.72,1.1,-3,CCNCCNc1ccc(Cl)cc1[N+](=O)[O-]
0.7,i,4,14,-2.2,1,0.66,-3.0,-1,CCN(C(=O)c1cccc(Br)c1)C1CCS(=O)(=O)C1 (stereo unspecified)
-20,i,2,-1,-3.9,98*,0.66,-0.1,-1,CCN(C(=O)COC(=O)/C=C/c1ccc(O)c(OC)c1)C1CCS(=O)(=O)C1 (stereo unspecified)
0.6,i,25,13,1.9,0,0.62,3.9,5,O=C(Cn1cc(C(F)(F)F)ccc1=O)OCC(=O)c1ccc[nH]1
1.2,·,·,·,·,-1,0.71,3.8,2,Cc1ccc(S(=O)(=O)n2nc(OC(=O)c3c(-c4ccccc4Cl)noc3C)cc2N)cc1
0.2,·,·,·,·,-10,0.71,3.8,-3,CS(=O)(=O)N(CC(=O)NCc1ccc2c(c1)OCO2)c1ccccc1
-1.7,·,·,·,·,-2,0.68,1.2,-8,COC(=O)c1ccccc1NC(=O)CSc1nnc(-c2ccoc2C)n1C
0.4,i,-14,-19,-1.5,-3,0.66,0.7,4,CCc1cc(C(=O)N2CCCC(N3CCN(c4cccc(C(F)(F)F)c4)CC3)C2)n(C)n1 (stereo unspecified)
-2.3,·,·,·,·,0,0.71,4.2,3,CCN(CC)CCOC(=O)C12CC3CC(CC(C3)C1)C2
5.4,i,-37,-51,2.2,·,0.72,-2.3,-11,Cc1cccc(OCCn2c(=O)n(C)c3ccccc32)c1
6.8,i,-3,8,-2.4,-1,0.69,0.1,1,O=C(Nc1ccc(C(=O)O)cc1)/C(=C\c1ccc(F)cc1)NC(=O)c1ccco1
·,i,-32,-67,4.1,·,·,2.1,·,Cc1ccccc1-c1cc2nc(NCc3cccnc3)n(C)c(=O)c2s1
2.3,i,11,7,4.4,-2,0.7,0.4,2,COc1ccc2oc(=N)c(C(=O)Nc3ccc(C)cc3)cc2c1
2.8,i,-4,-5,3.7,19,0.7,3.6,-2,CSc1ccccc1OCc1cc(C(=O)N2CCNC(=O)C2)no1
-14,·,·,·,·,4,0.82,-29,-74,c1ccc(N2CCN(c3nc4ccccc4n4nnnc34)CC2)cc1
-6.4,·,·,·,·,-9,0.7,3.7,7,COC(=O)CCc1sc(NC2CCCCC2)nc1-c1ccc(OC)cc1
3.0,i,2,2,-4.0,·,0.71,1.5,1,CN(C(=O)c1cccc(NC(=O)Cc2ccc(NC(=O)C3CCCN(S(=O)(=O)c4cccc([N+](=O)[O-])c4)C3)cc2)c1)C1CCC1 (stereo unspecified)
1.9,·,·,·,·,-10,0.72,-2.6,0,O=C(CSc1nnnn1-c1ccccc1)NC(=O)Nc1ccc2c(c1)OCCO2
1.6,i,-11,-15,-2.3,-7,0.68,2.0,18,CCc1[nH]nc(C(=O)NC2CCCc3c2cnn3-c2cc(C)cc(C)c2)c1C (stereo unspecified)
0.9,i,7,2,0.3,-3,0.63,0.9,12,NC(=O)C1CCN(CC(=O)Nc2nc(-c3ccccc3)cs2)CC1
3.7,i,3,3,0.2,-2,0.69,2.4,-1,O=C(CCS(=O)(=O)c1ccc(F)cc1)N1CCOCC1
2.1,i,7,-4,-1.2,12,0.7,-3.0,13,COC(=O)c1ccc(N2NC(=O)/C(=C/c3ccc(OC)c(OC)c3)C2=O)cc1
1.4,·,·,·,·,-1,0.7,2.5,-2,O=[N+]([O-])c1cc([N+](=O)[O-])c(Oc2cc(Cl)ccc2Cl)cc1NC1CCCCCCC1
4.0,i,-1,-3,0.8,0,0.7,-0.4,-10,CCC(=O)N1N=C(c2ccc(C)o2)CC1c1ccc(OC)cc1 (stereo unspecified)

Screening results (PubChem BioAssay)
